Screening data deposited in PubChem BioAssay by Broad Institute.
Yeast UUG start: yeast start codon fidelity modulation | S. cerevisiae UUG-firefly luciferase reporter, luminescence/redox ratio | activity score, % at 18.7 µM | 350,000 compounds, 0.13% hits | AID 602363;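 active = replicate mean at a twofold rise or more, about +100% in these data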;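 note: firefly luciferase made from a UUG start codon reports start codon fidelity; reporter light over untreated wells divided by growth signal over untreated wells; some hits fall short of that in this replicate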
Numbers without * were called inactive. The list is partial; rates above refer to the full screens.

Compound	Yeast UUG start
COc1ccc(CN(C)C[C@H]2Oc3c(NC(=O)c4ccc(-c5nccs5)cc4)cccc3C(=O)N([C@H](C)CO)C[C@@H]2C)cc1	-2
CN1C[C@@H]2[C@H](c3ccccc31)[C@@H](CO)N2Cc1ccccc1Cl	7
C[C@H](CO)N1C[C@H](C)[C@H](CN(C)S(=O)(=O)c2ccc(Cl)cc2)Oc2ccc(N(C)C)cc2C1=O	3
C[C@@H]1CN([C@H](C)CO)C(=O)c2cc(NC(=O)C3CC3)ccc2O[C@H]1CN(C)C(=O)Nc1ccc(C(F)(F)F)cc1	-6
C[C@H]1CN([C@@H](C)CO)C(=O)Cc2cc(N(C)C)ccc2O[C@@H]1CN(C)Cc1ccc(-c2ccccc2)cc1	-8
COc1ccc(NC(=O)N2CC[C@H]3[C@@H]2c2cc(Br)ccc2N(C)[C@H]3CO)cc1	-6
Cc1noc(C)c1NC(=O)Nc1ccc2c(c1)C(=O)N([C@@H](C)CO)C[C@@H](C)[C@@H](CN(C)S(=O)(=O)c1cn(C)cn1)O2	-11
C[C@H](O)C#Cc1ccc([C@@H]2[C@@H](CO)N3CCCCN(C(=O)c4cccc(F)c4)C[C@@H]23)cc1	8
CN1c2ccc(-c3cccc(F)c3)cc2[C@H]2[C@H](CCN2C(=O)Nc2ccccc2F)[C@H]1CO	-1
C[C@H](CO)N1C[C@H](C)[C@H](CN(C)C(=O)NC2CCCCC2)Oc2c(NC(=O)Nc3ccc4c(c3)OCO4)cccc2C1=O	-15
Cc1ccc(S(=O)(=O)N(C)C[C@@H]2Oc3ccc(NC(=O)CCN4CCOCC4)cc3CC(=O)N([C@H](C)CO)C[C@H]2C)cc1	9
O=C(CC1CC1)Nc1ccc2c(c1)[C@H]1C[C@@H](CC(=O)N3CCOCC3)O[C@H](CO)[C@H]1O2	3
CCCNC(=O)Nc1ccc2c(c1)OC[C@@H](C)N(Cc1ccccn1)C[C@H](C)[C@@H](OC)CN(C)C2=O	-9
Cc1ccccc1-c1ccc([C@H]2[C@@H](CO)N3CCCCN(C(=O)CN4CCOCC4)C[C@H]23)cc1	8
CN1C[C@H]2[C@@H](c3ccccc31)[C@H](CO)N2Cc1ccccc1	-5
CN1CCN(C(=O)C[C@@H]2CC[C@@H]3[C@H](COC[C@H](O)CN3Cc3ccc(Oc4ccccc4)cc3)O2)CC1	-3

Arranged by value in Yeast UUG start (high to low): 3 from the list above.
Compound	Yeast UUG start
Cc1ccc(S(=O)(=O)N(C)C[C@@H]2Oc3ccc(NC(=O)CCN4CCOCC4)cc3CC(=O)N([C@H](C)CO)C[C@H]2C)cc1	9
Cc1ccccc1-c1ccc([C@H]2[C@@H](CO)N3CCCCN(C(=O)CN4CCOCC4)C[C@H]23)cc1	8
CCCNC(=O)Nc1ccc2c(c1)OC[C@@H](C)N(Cc1ccccn1)C[C@H](C)[C@@H](OC)CN(C)C2=O	-9

The listing continues.
Compound	Yeast UUG start
CCCNC(=O)N1C[C@@H]2[C@H](c3ccccc31)[C@@H](CO)N2C(=O)Nc1ccccc1F	-5
CCCC(=O)Nc1ccc2c(c1)OC[C@H](C)N(Cc1ccccc1F)C[C@@H](C)[C@@H](OC)CN(C)C2=O	10
O=C(C[C@@H]1CC[C@@H]2[C@H](COC[C@H](O)CN2C(=O)c2ccncc2)O1)Nc1ccc(-c2ccccc2)cc1	4
C[C@H]1CN([C@@H](C)CO)C(=O)c2cc(NS(=O)(=O)c3cn(C)cn3)ccc2O[C@H]1CN(C)Cc1ccncc1	-19
CN(C)C(=O)c1cccc(-c2ccc3c(c2)[C@@H]2[C@@H](CCN2C(=O)C2CCCCC2)[C@@H](CO)N3)c1	-5
C[C@@H]1CN([C@@H](C)CO)C(=O)c2cccc(NS(=O)(=O)c3ccccc3)c2O[C@@H]1CN(C)Cc1ccccc1	-4
Cn1cnc(S(=O)(=O)N2CCCCN3[C@H](CO)[C@H](c4ccc(-c5ccc(F)cc5)cc4)[C@@H]3C2)c1	-1
O=C(C[C@@H]1CC[C@H]2[C@@H](COC[C@H](O)CN2S(=O)(=O)c2ccccc2)O1)Nc1ccc(-c2ccccc2)cc1	5
COCC(=O)N1C[C@H](C)[C@H](OC)CN(C)C(=O)c2ccc(NC(=O)NC(C)C)cc2OC[C@@H]1C	27
O=C(C[C@H]1CC[C@H]2[C@@H](COC[C@H](O)CN2C(=O)c2cccnc2)O1)NCc1ccc(-c2ccccc2)cc1	-14
CN1C(=O)c2cc(NC(=O)Nc3cccc(Cl)c3)ccc2OC[C@@H]2O[C@@H](CC(=O)NCCc3ccncc3)CC[C@@H]21	-2
C[C@H]1CN([C@@H](C)CO)C(=O)CCCn2nncc2CO[C@@H]1CN(C)Cc1ccc2c(c1)OCCN2C	3
CC(C)NC(=O)N1CCCCN2[C@@H](CO)[C@@H](c3ccc(C#CC4CC4)cc3)[C@@H]2C1	30
O=C(Nc1ccc(F)cc1)N1C[C@H]2[C@@H](c3ccccc31)[C@H](CO)N2C(=O)c1cccnc1	59
CNC[C@@H]1Oc2ccc(NC(=O)Nc3ccccc3)cc2CC(=O)N([C@@H](C)CO)C[C@H]1C	-15
C[C@@H]1CN([C@@H](C)CO)C(=O)Cc2cc(NS(=O)(=O)c3cccs3)ccc2O[C@@H]1CN(C)CC1CC1	7
CS(=O)(=O)Nc1ccc2c(c1)[C@H]1C[C@@H](CC(=O)N3CCOCC3)O[C@@H](CO)[C@H]1O2	-24
CC(C)NC(=O)N(C)C[C@@H]1Oc2c(NC(=O)c3cnccn3)cccc2C(=O)N([C@H](C)CO)C[C@@H]1C	-5
COCC(=O)Nc1ccc2c(c1)C(=O)N(C)C[C@H](OC)[C@H](C)CN(C(=O)Cc1ccccn1)[C@H](C)CO2	4
CC(C)NC(=O)N1[C@@H](CO)[C@@H](c2ccccc2)[C@@H]1CNC(=O)CN(C)C	18
Cc1ccc(S(=O)(=O)Nc2cccc3c2O[C@@H](CN(C)C(=O)NC(C)C)[C@@H](C)CN([C@H](C)CO)C3=O)cc1	11
CCCNC(=O)N1[C@H](CNC(C)=O)[C@H](c2ccc(C3=CCCC3)cc2)[C@@H]1CO	16
CN1C(=O)c2cc(NC(=O)c3cccc(C(F)(F)F)c3)ccc2OC[C@@H]2O[C@H](CC(=O)NCCN3CCCC3)CC[C@@H]21	6
COCC(=O)Nc1ccc2c(c1)C(=O)N(C)C[C@H](OC)[C@@H](C)CN(C(=O)c1cccnc1)[C@H](C)CO2	-10
C/C=C/c1ccc([C@H]2[C@H]3CN(S(=O)(=O)c4ccc(OC)cc4)CCCCN3[C@H]2CO)cc1	-3
COCC(=O)N1CC[C@@H]2[C@H]1c1cc(-c3ccccc3)ccc1N(C)[C@H]2CO	3
CCC(=O)N1CCCCN2[C@@H](CO)[C@@H](c3ccc(-c4cccnc4)cc3)[C@@H]2C1	-14
CCS(=O)(=O)Nc1ccc2c(c1)C(=O)N(C)C[C@@H](OC)[C@H](C)CN(Cc1nccs1)[C@H](C)CO2	-16
CCCNC(=O)C[C@H]1C[C@@H]2c3cc(NS(C)(=O)=O)ccc3O[C@@H]2[C@H](CO)O1	-3
COc1ccc(S(=O)(=O)N(C)C[C@@H]2Oc3ccc(NC(=O)Cc4ccccc4)cc3CC(=O)N([C@@H](C)CO)C[C@@H]2C)cc1	-10
O=C(NCC1CCCCC1)[C@@H]1[C@@H](CO)[C@@H]2Cn3c(ccc(C4=CCCCC4)c3=O)[C@H]1N2	14
CO[C@@H]1CN(C)C(=O)c2cc(NC(=O)NC3CCCCC3)ccc2OC[C@@H](C)N(C(C)=O)C[C@H]1C	2
COc1ccc(CN2C[C@H](O)COC[C@@H]3O[C@@H](CC(=O)N4CCc5ccccc5C4)CC[C@H]32)cc1	0
CN1[C@@H](CO)[C@@H]2c3ccccc3N(C(=O)Nc3cc(F)ccc3F)C[C@@H]21	11
CCCNC(=O)Nc1ccc2c(c1)C(=O)N(C)C[C@@H](OC)[C@H](C)CN(C(=O)C1CC1)[C@H](C)CO2	-6
CO[C@@H]1CN(C)C(=O)c2cc(NC(=O)NC(C)C)ccc2OC[C@H](C)N(Cc2ccccn2)C[C@H]1C	-14
C[C@@H]1CN([C@H](C)CO)C(=O)c2cccc(NC(=O)C3CCOCC3)c2O[C@H]1CN(C)C(=O)Nc1ccccc1	-2
CN1c2ccc(-c3cccc(F)c3)cc2[C@@H]2[C@@H](CCN2C(=O)c2ccccc2F)[C@@H]1CO	-12
CC(=O)N1CCCCN2[C@H](CO)[C@@H](c3ccc(Br)cc3)[C@H]2C1	8
CC(C)NC(=O)Nc1ccc2c(c1)CC(=O)N([C@H](C)CO)C[C@H](C)[C@H](CN(C)S(=O)(=O)c1ccc(Cl)cc1)O2	16
CCC(=O)N(CC)C[C@H]1[C@H](c2ccc(-c3ccccc3)cc2)[C@@H](CO)N1C(C)=O	11
C[C@@H]1CN([C@@H](C)CO)C(=O)c2cc(NS(=O)(=O)c3cn(C)cn3)ccc2O[C@@H]1CN(C)Cc1ccc(C(=O)Nc2ccccc2N)cc1	7
C[C@H]1CN([C@@H](C)CO)C(=O)c2cc(NC(=O)Cc3cn(C)c4ccccc34)ccc2O[C@@H]1CN(C)C(=O)Nc1ccc(F)cc1	22
COc1cccc(S(=O)(=O)N2CC[C@@H]3[C@H]2c2cc(C#Cc4cccnc4)ccc2N(C)[C@H]3CO)c1	-16
C[C@@H]1CN([C@@H](C)CO)C(=O)c2cccc(NS(=O)(=O)c3ccccc3)c2O[C@H]1CN(C)Cc1ccccc1	5
COCC(=O)Nc1ccc2c(c1)[C@@H]1C[C@@H](CC(=O)NCc3ccncc3)O[C@H](CO)[C@@H]1O2	-19
CC(=O)NC[C@@H]1[C@H](c2ccc(C3=CCCCC3)cc2)[C@H](CO)N1C(=O)NC(C)C	9
CCC(=O)N1CC[C@@H]2[C@H]1c1cc(-c3ccccc3)ccc1N(C)[C@H]2CO	12

Quoted at random: 6 entries already listed
Compound	Yeast UUG start
COCC(=O)Nc1ccc2c(c1)[C@@H]1C[C@@H](CC(=O)NCc3ccncc3)O[C@H](CO)[C@@H]1O2	-19
CC(=O)NC[C@@H]1[C@H](c2ccc(C3=CCCCC3)cc2)[C@H](CO)N1C(=O)NC(C)C	9
C[C@@H]1CN([C@@H](C)CO)C(=O)c2cccc(NS(=O)(=O)c3ccccc3)c2O[C@H]1CN(C)Cc1ccccc1	5
CCC(=O)N1CC[C@@H]2[C@H]1c1cc(-c3ccccc3)ccc1N(C)[C@H]2CO	12
COc1cccc(S(=O)(=O)N2CC[C@@H]3[C@H]2c2cc(C#Cc4cccnc4)ccc2N(C)[C@H]3CO)c1	-16
CCC(=O)N(CC)C[C@H]1[C@H](c2ccc(-c3ccccc3)cc2)[C@@H](CO)N1C(C)=O	11

(further entries)
Compound	Yeast UUG start
COCC(=O)Nc1ccc2c(c1)C(=O)N(C)C[C@H](OC)[C@@H](C)CN(C(=O)c1ccccn1)[C@@H](C)CO2	-13
CN(C)CC(=O)N1[C@@H]2c3ccc(C4=CCCC4)c(=O)n3C[C@H]1[C@H](CO)[C@H]2C(=O)NCC1CCCCC1	21
CCCN1C[C@@H](C)[C@@H](OC)CN(C)C(=O)c2cc(NS(=O)(=O)CC)ccc2OC[C@H]1C	4
O=C(Nc1nccs1)[C@H]1[C@H](CO)[C@H]2Cn3c(cccc3=O)[C@@H]1N2C(=O)C1CC1	0
OC[C@@H]1[C@@H](c2ccc(-c3ccccc3)cc2)[C@H]2CN(CCC(F)(F)F)CCCCN12	-5
C[C@@H]1CN([C@H](C)CO)C(=O)c2cc(NC(=O)Nc3ccc(F)cc3)ccc2O[C@@H]1CN(C)C	-5
C[C@H]1CN([C@@H](C)CO)C(=O)c2cc(NC(=O)CCC(F)(F)F)ccc2O[C@@H]1CN(C)S(=O)(=O)c1ccc(Cl)cc1	1
CC=Cc1ccc2n(c1=O)C[C@@H]1[C@@H](CO)[C@H](C(=O)N3CCc4ccccc4C3)N(C(=O)C3CCC3)[C@H]21 (mixture of isomers)	23
O=C(c1cccc(F)c1)N1CC[C@@H]2[C@H]1c1cc(C#Cc3ccc(F)cc3)ccc1N[C@@H]2CO	-16
O=C(C[C@@H]1CC[C@H]2[C@@H](COC[C@@H](O)CN2CCc2ccccc2)O1)NCc1ccc(Oc2ccccc2)cc1	-12
CCCC#Cc1ccc([C@@H]2[C@@H](CO)N3CCCCN(S(=O)(=O)c4ccccc4C)C[C@H]23)cc1	-4
C[C@H]1CN([C@@H](C)CO)C(=O)c2cc(NC(=O)CCN3CCOCC3)ccc2O[C@@H]1CN(C)C(=O)Nc1ccc2c(c1)OCO2	-4
Cc1cccc(S(=O)(=O)N2C[C@@H](O)COC[C@H]3O[C@@H](CC(=O)NCc4ccncn4)CC[C@@H]32)c1	-9
CO[C@@H]1CN(C)C(=O)c2ccc(NC(=O)C3CCCCC3)cc2OC[C@H](C)N(Cc2nccs2)C[C@H]1C	46
C[C@H]1CN([C@@H](C)CO)C(=O)c2cc(NC(=O)Nc3cccc4ccccc34)ccc2O[C@@H]1CN(C)S(=O)(=O)c1ccc(Cl)cc1	2
CCC(=O)N1C[C@@H](C)[C@@H](OC)CN(C)C(=O)c2cc(NC(=O)C3CCOCC3)ccc2OC[C@H]1C	0
COc1cccc(-c2ccc3c(c2)[C@H]2[C@H](CCN2S(=O)(=O)c2cccc(OC)c2)[C@H](CO)N3)c1	-17
CC(=O)NC[C@H]1[C@H](c2ccc(-c3cccc(F)c3)cc2)[C@@H](CO)N1C(C)=O	-5
C[C@@H]1CN([C@@H](C)CO)C(=O)Cc2cc(NC(=O)Cc3cn(C)c4ccccc34)ccc2O[C@@H]1CN(C)C(=O)NC1CCCCC1	0
C[C@@H]1CN([C@H](C)CO)C(=O)c2cc(NC(=O)c3ccncc3)ccc2O[C@H]1CN(C)S(=O)(=O)c1ccc(Cl)cc1	5
O=C(NC[C@H]1[C@H](c2ccccc2)[C@H](CO)N1C(=O)C1CC1)NC1CCCC1	-2
CC=Cc1ccc2n(c1=O)C[C@H]1[C@H](CO)[C@@H](C(=O)N3CCOCC3)N(Cc3ccccc3)[C@@H]21 (mixture of isomers)	12
